Screening results deposited in PubChem by several laboratories.
RanGTP-Impb inh: inhibitors of RanGTP-importin-beta interaction, primary screen, biochemical, FRET, CFP-Ran, YFP-importin-beta, homogeneous. Ran GTPase (GTP-bound) - importin-beta complex. cell-free CFP-Ran/YFP-importin-beta FRET ratio. inhibition, % (concentration not given with the values). hit rate 1.1% among 300,000. AID 2216, 2009;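 active = most replicates above 15%; inconclusive = exactly half above 15%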;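 also: 0% = DMSO wells and 100% = Ran loaded with GDP instead of GTP; wells of about 40 µL received 100 nL stock; the first replicate is given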
FGF22 binding: binders of human FGF22 protein, primary screen, FGF22 synaptogenesis inhibitor project, biophysical, thermal shift, single point | Fibroblast growth factor 22 (Homo sapiens), Q9HCT0 | recombinant FGF22 thermal shift, SYPRO orange fluorescence; percent of sucrose octasulfate shift, DMSO zero | calls only at 9.99 µM | hit rate 1.5% among 340,000 | AID 651658, 2012;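 active = melting point raised past a set limit in the mean and every replicate; inconclusive = no clear call; three in four hits are not shown here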
Target sequence (Q9HCT0 whole entry, looked up): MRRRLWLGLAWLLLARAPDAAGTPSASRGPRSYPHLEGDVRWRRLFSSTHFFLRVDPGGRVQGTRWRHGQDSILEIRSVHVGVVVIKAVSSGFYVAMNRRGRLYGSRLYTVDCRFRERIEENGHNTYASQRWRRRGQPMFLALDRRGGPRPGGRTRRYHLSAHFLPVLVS
E coli growth: E. coli growth inhibition, primary screen, OD600 | Escherichia coli growth, 23 h; active compounds read low | OD600 absorbance (concentration not given with the values) | hit rate 0.21% among 330,000;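 active = OD600 absorbance below the run mean of sample wells minus 3.6 SD, in any replicate, cut at about 0.56 in these data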;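 also: stock transfer was 300 nL into about 60 µL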
UCH37 DUB inh: inhibitors of human UCH37 deubiquitinase, primary screen, biochemical, Ub-AMC cleavage, fluorescence | hit rate 0.33% among 330,000 | AID 588478, 2011 | purified proteasome/UCH37 | Ubiquitin carboxyl-terminal hydrolase isozyme L5 (Homo sapiens), Q9Y5K5 | inhibition, % (test concentration not listed);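 active = mean of two replicates above 20%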;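 also: 0% = compound-free wells with enzyme and 100% = wells lacking proteasome; stock transfer was 100 nL into about 20 µL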
Target sequence (Q9Y5K5 whole entry, looked up): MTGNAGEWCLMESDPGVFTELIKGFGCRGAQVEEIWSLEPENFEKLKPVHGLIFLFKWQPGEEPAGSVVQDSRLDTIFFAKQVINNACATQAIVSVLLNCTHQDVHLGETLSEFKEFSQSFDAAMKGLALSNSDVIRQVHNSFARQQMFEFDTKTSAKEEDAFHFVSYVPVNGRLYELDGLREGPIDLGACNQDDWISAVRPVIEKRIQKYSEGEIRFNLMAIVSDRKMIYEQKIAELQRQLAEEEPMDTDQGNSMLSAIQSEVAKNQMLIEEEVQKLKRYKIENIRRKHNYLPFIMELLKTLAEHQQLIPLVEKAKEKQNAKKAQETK
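Assay system: Proteasome-bound UCH37. Buffer or medium: pH 7.4 Tris-HCl (50 mM) with ovalbumin, ATP-MgCl2, DTT. Incubation: 30 min preincubation with enzyme, 25 min cleavage at room temperature. Measured by: fluorescence, ex 355 nm, em 460 nm. Read-out basis: percent inhibition. Control set: wells without proteasome as full block, compound-free enzyme plus substrate as uninhibited.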
MLL AF4-AF9 inh: inhibitors of AF4 peptide binding to AF9, primary screen, biochemical, AlphaScreen, biotin-AF4 peptide, FLAG-AF9, single point; Protein AF-9 (Homo sapiens), P42568; inhibition, % at 10 µM; hit rate 0.47% among 350,000; AID 651704, 2012;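 active = every replicate reaching a set inhibition limit, whatever the replicate mean, cut at about 25% in these data; inconclusive = mean inhibition reaches that limit but some replicates miss it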;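 also: 0% = plate neutral control median and 100% = total signal loss; the record names both 10 and 1 µM as test concentration; the first replicate is given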
HNF4A DNA FP: change in binding of human HNF4A to DNA, primary screen, biochemical, fluorescence polarization, FITC-DNA | 1 h | activity change, % at 10 µM | hit rate 0.3% among 360,000 | AID 1224865, 2016; in the data active = activity change above about 30%, passing the limit was not always enough;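 also: controls were the assay level and a saturating level of protein; the project sought stronger binding though the title names inhibitors; some compounds called inactive have numbers as strong as hits; positive values seem to mean higher polarization but the record does not say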
Target sequence (P41235 whole entry, looked up): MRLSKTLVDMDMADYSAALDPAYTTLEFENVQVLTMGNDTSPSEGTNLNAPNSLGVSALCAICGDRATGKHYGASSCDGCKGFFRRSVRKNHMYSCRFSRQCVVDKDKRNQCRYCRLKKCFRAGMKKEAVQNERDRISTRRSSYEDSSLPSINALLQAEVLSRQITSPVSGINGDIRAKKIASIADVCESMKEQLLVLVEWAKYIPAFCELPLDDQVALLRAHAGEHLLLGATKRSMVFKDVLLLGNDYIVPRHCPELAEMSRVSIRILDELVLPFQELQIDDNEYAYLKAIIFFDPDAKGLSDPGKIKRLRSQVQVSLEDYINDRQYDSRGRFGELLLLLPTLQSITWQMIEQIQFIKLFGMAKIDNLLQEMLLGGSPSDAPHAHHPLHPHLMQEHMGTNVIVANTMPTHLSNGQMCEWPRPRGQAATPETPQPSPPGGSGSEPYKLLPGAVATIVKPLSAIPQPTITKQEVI
Vif A3G: inhibitors of Vif binding to APOBEC3G peptide, primary screen, biochemical, TR-FRET, GST-Vif 1-94, biotin-A3G peptide, dose response retest (AID 1117319) | Virion infectivity factor (Human immunodeficiency virus type 1 group M subtype B (isolate … | TR-FRET GST-Vif / biotin-A3G peptide binding; higher % means a stronger effect; test concentration not given here; strong numbers were not always called active | one-dose inhibition, %; IC50 in µM for titrated hits | hit rate 0.57% among 260,000;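 active = above the screen mean plus three standard deviations and confirmed in dose response; inconclusive = results disagree or hit not tested in dose response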;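 also: Vif residues 1-94 fused to GST binding biotinylated APOBEC3G peptide 110-148; 0% = full assay without inhibitor and 100% = GST in place of GST-Vif; retest series ran down from 100 µM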
* marks the source's active call; other numbers are inactive results; i = inactive; ? = inconclusive; . = no result given; & = joins results of further samples. An excerpt. The share of hits here may be higher or lower than overall.

SMILES	RanGTP-Impb inh	FGF22 binding	E coli growth	UCH37 DUB inh	MLL AF4-AF9 inh	HNF4A DNA FP	Vif A3G
COc1ccc(C(CNC(=O)c2cc(S(=O)(=O)N3CCCCC3)ccc2C)N2CCCC2)cc1 (stereo not given)	.	i	0.72	5.1	0.0	4.1	.
Cc1cc2c(OCC(O)CNC3CCCCC3)cccc2[nH]1 (stereo not given)	0.2	i	0.75	0.3	29*	-0.5	18%
Cc1c(NC(=O)c2ccc(N(Cc3ccccc3)S(C)(=O)=O)cc2)c(=O)n(-c2ccccc2)n1C	-1.5	i	0.69	-2.1	1.5	-2.1	2%
CC(C)(C)c1ccc(C(=O)NCC(=O)N2CCNC(=O)C2)cc1	2.2	i	0.71	0.3	-0.6	-0.5	.
Cc1nonc1OCCNC(=O)C12CC3CC(CC(C3)C1)C2	-1.1	.	0.64	0.2	.	-2.5	-6%
COC(=O)C1=C(C(=O)OC)SC2(S1)C(C(=O)OC)=C(C(=O)OC)SC1=C2c2cc(C)ccc2NC1(C)C	-1.2	.	0.72	11	.	2.5	2%
CCN(CC)c1nc(C)c2c(c1C#N)CC(C)(C)OC2	1.2	.	0.71	-57	.	0.2	-3%
O=C(COC(=O)CNS(=O)(=O)c1ccc(Cl)cc1)NC1CCCCC1	.	i	0.63	1.5	-1.3	-1.5	-1%
CCCOC(=O)CSc1nnc(-c2ccccc2Cl)o1	1.8	.	0.69	2.2	.	-0.5	?
O=C(NCc1ccccc1)C(c1ccc(F)cc1)N(Cc1ccco1)C(=O)c1ccccn1 (stereo not given)	-0.6	.	0.72	5.8	.	2.3	3%
CN(C)C(=O)CSc1ncnc2scc(-c3ccccc3)c12	1.0	.	0.68	-0.2	-0.7	14	-73%
Cc1ccc(C(=O)OCC(=O)Nc2ccc(Cl)cn2)cc1S(=O)(=O)N1CCOCC1	.	i	0.68	3.4	-0.3	-4.8	7%
Cc1cc(OC(=O)c2ccc(C)c(C)c2)c([N+](=O)[O-])c(=O)[nH]1	5.0	i	0.75	7.5	1.2	1.0	0%
CC=CCn1c(SCc2ccccc2)nc2c1c(=O)[nH]c(=O)n2C	.	i	.	.	0.9	3.1	.
CCOC(=O)c1c(NC(=O)c2ccc(S(=O)(=O)N(C)CC3CCCO3)cc2)sc2c1CC(C)(C)NC2(C)C (stereo not given)	3.5	i	0.7	-25	0.2	0.2	.
Cc1ccc(S(=O)(=O)Nc2ccc(Cl)cn2)cc1C	6.8	i	0.7	-1.6	-4.0	0.4	.
Cc1c(-c2ccccc2)nnn1-c1ccc(F)cc1F	6.1	i	0.66	2.1	-3.6	-0.1	-9%
COC(=O)NNC(=S)NCc1ccccc1	-1.3	.	0.66	6.0	.	1.5	-8%
COc1cc(C2c3c(oc4ccccc4c3=O)C(=O)N2CCN2CCOCC2)cc(OC)c1OC (stereo not given)	6.4	.	0.73	1.5	.	0.6	0%
O=C(CSc1nnc(Cc2cc(=O)[nH]c(=O)[nH]2)n1-c1ccccc1)N1CCCCC1	-4.6	i	0.73	4.1	2.5	0.5	-2%
O=C(NCC1CCCO1)c1cc([N+](=O)[O-])ccc1Cl (stereo not given)	0.8	.	0.66	2.5	-3.7	-2.2	-7%
CCCCCC(=O)NNC1CC(=O)N(c2cccc(OCC)c2)C1=O (stereo not given)	1.2	i	0.64	2.6	-1.0	23	21%
CN(C(=O)CSc1nnc(-c2ccccc2F)o1)c1ccccc1	1.3	i	0.67	-0.7	8.3	1.7	-3%
COc1cccc(CC(=O)NC2CCCN(Cc3ccccc3F)C2)c1 (stereo not given)	0.7	i	0.71	1.6	-1.9	2.8	.
CCc1noc(C)c1C(=O)Nc1ncc(C)s1	-1.0	.	0.68	4.5	.	0.7	-1%

MLL AF4-AF9 inh: hit marks shown above
molecule,RanGTP-Impb inh,UCH37 DUB inh,MLL AF4-AF9 inh,HNF4A DNA FP,Vif A3G
Cc1cc2c(OCC(O)CNC3CCCCC3)cccc2[nH]1 (stereo not given),0.2,0.3,29*,-0.5,18%

New compounds follow:
SMILES	RanGTP-Impb inh	FGF22 binding	E coli growth	UCH37 DUB inh	MLL AF4-AF9 inh	HNF4A DNA FP	Vif A3G
COc1ccc(-c2cc([C@H]3[C@H]4C=CC[C@@H](C)[C@@H]4C(=O)N3Cc3ccccc3)ccc2F)cc1	3.6	i	.	.	-8.5	-0.9	5%
Cc1cccc(N2CCN(C(=O)COc3ccc4ccc(=O)oc4c3)CC2)c1C	-2.5	i	0.69	-1.0	-2.3	0.8	.
COc1ccc(OC)c(NC(=O)c2nnn(Cc3ccccc3C)c2N)c1	10	.	0.69	2.0	.	3.2	-4%
c1ccc(-c2csc3ncnc(NCc4ccccn4)c23)cc1	-2.9	i	.	.	1.1	5.3	-6%
CCOc1ncccc1C(=O)OC(C)C(=O)Nc1ccc(N2CCOCC2)cc1 (stereo not given)	.	i	0.68	1.5	-0.3	3.1	.
COc1ccc(NC(=O)N(C)C[C@H]2Oc3c(NS(=O)(=O)c4ccc(F)cc4)cccc3C(=O)N([C@H](C)CO)C[C@@H]2C)cc1	.	i	.	4.4	-4.4&0.9	3.9	.
O=C(CN(c1cccc(Cl)c1)S(=O)(=O)c1ccc(Cl)cc1)N1CCc2ccccc2C1	3.0	.	0.67	6.6	.	1.1	24%
O=C(O)/C=C/C(=O)NCCc1cccc(Cl)c1	?	i	0.66	0.6	-0.9	2.9	-2%
Cn1c(-c2ccc(C(F)(F)F)cc2)cc2onc(-c3ccccc3)c2c1=O	.	i	0.7	-1.7	3.4	-0.9	.
Cc1cc(/C=C2/C(=O)N(C)C(=S)N2C)c(C)n1C1CC1	.	i	0.71	8.1	9.0	12	26%
CC(C)(C(=O)O)n1cncn1	0.4	i	0.71	2.5	2.9	3.7	?
COc1cc(CCC(=O)Oc2ccc(C(C)=O)cc2)cc(OC)c1OC	-0.4	i	0.62	1.5	11	3.1	.
O=S(=O)(Nc1ccc(F)cc1)c1ccc(NC(=S)Nc2ccccc2)cc1	2.3	.	0.69	1.7	.	3.6	5%
COC(=O)Nc1ccc(S(=O)(=O)Nc2cccc3ccccc23)cc1	0.9	.	0.61	4.8	.	5.9	16%
O=C1CC(N2CCN(c3ccccc3)CC2)C(=O)N1c1cccc(Br)c1 (stereo not given)	2.9	i	0.72	0.1	-7.2	3.0	.
COC(=O)CCC(=O)Oc1ccc(OC(=O)CCC(=O)OC)cc1	5.0	.	0.68	6.0	.	.	8%
CCOC(=O)Cn1ccc(O)c(Cc2ccc(Cl)cc2Cl)c1=O	-2.1	.	0.78	2.5	.	1.3	1%
COc1ccc(NC(=O)CSc2nnc(-c3ccncc3)o2)c(OC)c1	-6.3	i	0.68	5.9	7.7	3.4	3%
COc1ccc(C(=O)/C=C/C(=O)N(CC(=O)NC2CCCCC2)Cc2ccccc2OC)c(O)c1	4.3	i	0.68	1.7	-2.6	-0.1	4%
COC(=O)c1[nH]c2ccccc2c1NC(=O)c1ccccc1[N+](=O)[O-]	-2.7	.	0.71	-8.9	.	1.2	-2%
COc1ccccc1N1CCN(CCN(C(=O)c2ccc(F)cc2)c2ccccn2)CC1	.	i	0.68	4.6	?	-1.9	.
Cn1c(=O)n(C)c2cc(C(=O)Nc3ccc4c(c3)OCO4)ccc21	11	.	0.71	0.5	.	-0.9	16%
COc1ccc(OCc2nnc3n2N=C(c2ccc(Br)cc2)CS3)cc1	4.6	.	0.73	2.1	0.9	0.5	?
Cc1nc(-c2ccccc2)sc1C(=O)NN	3.4	.	0.65	0.6	2.5	3.5	5%
COc1ccc(-c2oc3cc(OC(C)=O)cc(OC(C)=O)c3c(=O)c2OC)cc1	.	i	0.64	-23	2.4	-5.4	-1%

As entered above:
`COc1ccc(C(=O)/C=C/C(=O)N(CC(=O)NC2CCCCC2)Cc2ccccc2OC)c(O)c1` @ E coli growth: 0.68
`COc1ccc(OCc2nnc3n2N=C(c2ccc(Br)cc2)CS3)cc1` @ UCH37 DUB inh: 2.1
`CC(C)(C(=O)O)n1cncn1` @ UCH37 DUB inh: 2.5
`COC(=O)Nc1ccc(S(=O)(=O)Nc2cccc3ccccc23)cc1` @ RanGTP-Impb inh: 0.9

(list continues)
SMILES	RanGTP-Impb inh	FGF22 binding	E coli growth	UCH37 DUB inh	MLL AF4-AF9 inh	HNF4A DNA FP	Vif A3G
CCN1CCN(C(=O)c2ccc(Cl)c(S(=O)(=O)N3CCCCC3)c2)CC1	-1.8	i	0.72	0.4	-2.5	-1.4	0%
CCNC(=O)C1(C)CCCN(Cc2cc(-c3ccccc3)n(C)n2)C1 (stereo not given)	.	i	.	.	-2.8	-2.0	.
O=c1c2ccccc2nc2n1C(CBr)CS2 (stereo not given)	3.1	i	0.61	1.3	-3.5	2.0	10%
CCN1CCN(Cc2ccc(NC(=O)c3cc(NC(=O)c4ccno4)cc(OC)c3)cc2C(F)(F)F)CC1	4.3	i	.	1.2	14&-34	1.9&-1.7	-12%
O=C(O)c1cc([N+](=O)[O-])cc2c1C=Cc1ccccc1O2	5.2	i	0.63	6.7	-1.1	-7.4	13%
COc1cc2c(cc1OC)CN(Cc1cc(OC)c3c(c1)OCO3)CC2	-2.8	i	0.69	1.4	1.5	1.7	.
COc1ccccc1N(CC(O)Cn1c(C)nc2ccccc21)S(=O)(=O)c1ccccc1 (stereo not given)	3.1	i	0.74	3.4	3.2	-1.3	.
O=C(C(c1ccccc1)c1ccccc1)N1CCN(Cc2ccc(Br)cc2)CC1	3.3	.	0.69	4.0	.	1.4	2%
CCN(CC)CCCNC(=O)CCC(=O)Nc1ccc2nc(N3CCC(C)CC3)cc(C)c2c1	-4.1	i	0.68	-304	-4.1	8.5	12%
CC(C(=O)NC1CCCCCC1)n1cc([N+](=O)[O-])cn1 (stereo not given)	0.8	i	0.65	5.1	-12	0.8	.
CC(C)C12CCC(C(=O)O)C(C1)C(=O)O2 (stereo not given)	1.8	.	0.69	2.4	.	-1.6	14%
O=C(Nc1ccc2c(c1)OCO2)C1CCN(c2ccc(S(=O)(=O)N3CCOCC3)cc2)CC1	-1.6	.	0.73	1.4	.	3.4	0%&-4%
COc1cccc(OC)c1C(=O)N1CCN(Cc2ccccc2F)CC1	.	i	.	.	2.3	-2.1	-3%
CC(C)(C)c1ccc(C(=O)NCC(=O)OCCN2C(=O)c3ccccc3C2=O)cc1	-0.2	i	0.68	2.4	-1.1	1.6	7%
CCCOC(=O)C1=C(C)NC2=C(C(=O)CC(C)(C)C2)C1c1cccnc1 (stereo not given)	?	.	0.69	-271	.	-0.8	-10%
Cc1c(NC(=O)/C(C#N)=C/c2ccc(-c3ccccc3Cl)o2)c(=O)n(-c2ccccc2)n1C	4.3	.	0.72	5.2	.	-0.6	.
NC1=NC(=O)C(Cc2ccccc2)S1 (stereo not given)	0.2	i	0.67	3.1	0.8	0.8	1%
O=C1OCC2=C1C(c1ccccc1)CC(=O)N2c1ccc(F)cc1 (stereo not given)	-2.4	i	0.66	-0.8	-0.3	-3.4	29%
Cn1cnnc1SCC(=O)Nc1ccc(S(N)(=O)=O)cc1	1.0	i	0.7	2.9	-3.6	2.7	.
CCOC(=O)c1ccc(-n2c(CN3CCOCC3)nc3ccc([N+](=O)[O-])cc3c2=O)cc1	-1.4	i	0.71	0.8	3.8	-1.8	?
